# Rce1 inh – inhibitors of yeast Ras-converting enzyme; AID 2563; calls only; 290,000 tested, 0.27% active; Q03530; yeast membranes, quenched prenylated peptide cleavage fluorescence;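 active = fall in fluorescence gain of 50% or more versus controls, with final raw signal at or below 3038400; inconclusive = same 50% fall but final raw signal above 3038400; inactive = fall in fluorescence gain under 50%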;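 note: plate controls were neutral control wells for no effect and wells lacking membranes for full effect; tested at 10 µM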
# Target sequence (Q03530 whole entry, looked up): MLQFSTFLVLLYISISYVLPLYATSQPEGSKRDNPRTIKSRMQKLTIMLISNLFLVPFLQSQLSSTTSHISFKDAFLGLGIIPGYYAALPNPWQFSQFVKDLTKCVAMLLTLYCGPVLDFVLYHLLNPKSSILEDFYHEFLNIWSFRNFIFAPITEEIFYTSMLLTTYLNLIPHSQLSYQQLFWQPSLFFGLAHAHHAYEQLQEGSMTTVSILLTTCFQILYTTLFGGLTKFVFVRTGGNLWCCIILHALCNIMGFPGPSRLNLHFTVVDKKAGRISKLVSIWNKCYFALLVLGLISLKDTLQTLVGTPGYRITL
# MT1-MMP act inh – blocks activation of human MT1-MMP; P50281; GFP/RFP ratio change, % at 20 µM; AID 651647; 360,000 tested, 0.061% active; HT1080 RFP-PRO-GFP cells, GFP/RFP ratio fluorescence, overnight; percent of plate control window, DMSO zero;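 active = GFP/RFP ratio change of at least 30% with cell ATP level not reduced by more than half and red fluorescence within 50% of control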; note: strong numbers were not always called active
#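 Assay system: HT1080 cells carrying an RFP-PRO-GFP reporter | Dosing: Single dose of 20 µM compound, 1% DMSO final | Incubation: Cells overnight before dosing, compound overnight, 37 °C, 5% CO2 | Evaluation: GFP/RFP fluorescence ratio | Control set: DMSO and RFP-L50D-GFP cell wells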
# HIV Env fusion – HIV envelope-mediated fusion inhibition. HeLa-JRFL Env/CEM21 cell fusion, luciferase. inhibition, % at 12.3 µM. 360,000 tested, 1.1% active. AID 651610;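 active = mean replicate inhibition score of at least 50 and every replicate individually at or above 50; inconclusive = only one of the two criteria met; inactive = mean below 50 and not all replicates reaching 50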;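 note: 0% = plate neutral controls and 100% = maraviroc near 300 nM; one replicate is shown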
# UUG fidelity – modulators of start codon recognition fidelity in yeast. S. cerevisiae UUG-firefly luciferase reporter, luminescence/redox ratio. 350,000 tested, 0.13% active. activity score, % at 18.7 µM;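 active = replicate mean at a twofold rise or more, about +100% in these data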;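 note: firefly luciferase made from a UUG start codon reports start codon fidelity; reporter light over untreated wells divided by growth signal over untreated wells; some hits fall short of that in this replicate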
# PABP FP inh – PABP-poly(A) binding inhibition; PABP-poly(A) RNA binding, fluorescence polarization; P11940; 290,000 tested, 1% active; inhibition, % at 35 µM; AID 2014;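 active = 50% or more with normal probe brightness, or confirmed in later tests; inconclusive = above 50% with abnormal brightness, or retests that disagree; inactive = below 50% or failed in later tests; about a fifth of its hits are not listed in these tables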;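 note: calls also rest on retests at 20 µM and on dose response follow-up; controls were probe without protein and protein plus probe with vehicle; some compounds called inactive have numbers as strong as hits; many hits fall short of the cut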
# Target sequence (P11940 whole entry, looked up): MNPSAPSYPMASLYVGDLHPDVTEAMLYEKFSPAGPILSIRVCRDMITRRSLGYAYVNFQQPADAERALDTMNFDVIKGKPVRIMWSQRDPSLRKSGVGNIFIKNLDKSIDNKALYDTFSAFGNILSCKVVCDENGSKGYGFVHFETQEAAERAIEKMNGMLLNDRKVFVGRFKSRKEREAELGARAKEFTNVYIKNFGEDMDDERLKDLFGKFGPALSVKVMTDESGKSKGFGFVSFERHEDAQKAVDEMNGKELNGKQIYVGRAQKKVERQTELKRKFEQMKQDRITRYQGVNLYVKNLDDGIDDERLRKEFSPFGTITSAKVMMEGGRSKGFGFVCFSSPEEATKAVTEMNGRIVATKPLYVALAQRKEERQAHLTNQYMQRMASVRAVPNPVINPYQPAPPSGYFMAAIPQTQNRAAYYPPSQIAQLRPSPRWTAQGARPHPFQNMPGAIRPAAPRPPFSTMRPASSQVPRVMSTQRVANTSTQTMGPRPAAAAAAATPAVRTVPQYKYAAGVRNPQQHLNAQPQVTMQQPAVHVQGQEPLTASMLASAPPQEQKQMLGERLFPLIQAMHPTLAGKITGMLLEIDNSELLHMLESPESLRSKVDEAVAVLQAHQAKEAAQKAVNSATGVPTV
# eIF4H inh – inhibitors of RNA binding by human eIF4H | eIF4H fluorescence polarization binding assay | Q15056 | 290,000 tested, 0.94% active | inhibition, % at 35 µM;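 active = 50% or more with normal probe brightness, or confirmed in later tests; inconclusive = above 50% with abnormal brightness, or retests that disagree; inactive = below 50% or failed in later tests; about a fifth of its hits are not listed in these tables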;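 note: calls also rest on retests at 20 µM and on dose response follow-up; 0% = protein and probe with vehicle and 100% = probe without protein; strong numbers were not always called active; many hits fall short of the cut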
# CSC inhib – cancer stem cell inhibition; cancer stem cell-like cells viability, luminescence; inhibition, % at 7.5 µM; 300,000 tested, 1.1% active; AID 2717;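 active = mean at 75% or more and at least half the replicates too; inconclusive = mean and replicates disagree; tested in HMLE shEcad cells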;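 note: 0% = median of negative and 100% = median of positive control wells; the first replicate is given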
# eIF4H inh retest – recorded beside eIF4H inh, whose call it bears; inhibition, %; compound at 20 µM; confirmation average;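 mean of two retest wells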
# PABP FP inh retest – further read-out of PABP FP inh, marked with its call; inhibition, %; compound at 20 µM; confirmation repeats;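 mean of two retest wells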
# MT1-MMP act inh RFP – also measured in MT1-MMP act inh; calls as there; RFP signal change, %; measured here: RFP expression control read;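 0 = vehicle wells; hits needed this value within 50% of zero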
# Numbers without * were called inactive; i = inactive; ? = inconclusive; . = not tested or not shown.
SMILES,Rce1 inh,MT1-MMP act inh,MT1-MMP act inh RFP,HIV Env fusion,UUG fidelity,PABP FP inh,eIF4H inh,CSC inhib,others
O=C(Oc1cccc2cccnc12)c1cccc([N+](=O)[O-])c1,i,0,5,-8,.,2,4,-14,
Cc1ccc(C)c(N2CCN(S(=O)(=O)c3ccc(-c4cc(C)no4)s3)CC2)c1,i,-5,-1,0,4,1,-1,0,
Cc1ccc(C2CC(=O)Nc3c2ccc2ccccc32)cc1[N+](=O)[O-] (stereo not drawn),i,1,-14,44,-9,13,-4,13,
CCc1nnc(NC(=O)c2ccc(S(=O)(=O)N3CCCC(C)C3)cc2)s1 (stereo not drawn),i,1,-1,-1,-13,0,-4,.,
O=C1CC(N2CCC(c3nc4ccccc4o3)CC2)C(=O)N1Cc1cccs1 (stereo not drawn),i,3,2,.,-14,-20,-3,-13,
COc1cc([C@@H]2C[C@H]3CN(c4ccccc4)C(=O)[C@]34CCCN24)cc(OC)c1OC,i,-6,-1,21,.,44,58,4,eIF4H inh retest=10;PABP FP inh retest=12
COc1ccccc1NC(=O)Cn1cnc2sc(C(=O)NCc3ccco3)c(C)c2c1=O,i,5,-2,.,-2,-2,-4,5,
CCOc1ncccc1C(=O)NC(C)CCc1ccccc1 (stereo not drawn),i,-2,-1,-20,-9,1,-9,-2,
O=C(CCC1CCCC1)Nc1ccc([N+](=O)[O-])cn1,i,0,-1,-20,.,-2,0,-22,
COCCNc1nc(Nc2ccccc2Cl)c2sc(-c3ccccc3)cc2n1,.,2,-2,11,2,.,.,.,
Cc1ccc(S(=O)(=O)c2ccc(Cl)cc2)cc1S(=O)(=O)NC(C)C(=O)O (stereo not drawn),i,4,3,7,.,-15,-3,40,
COc1ccc(S(=O)(=O)N2N=C(c3ccc(NS(C)(=O)=O)cc3)CC2c2ccco2)cc1 (stereo not drawn),i,-4,0,-5,.,13,3,14,
C=CCN1C(=O)[C@@H]2Cc3c([nH]c4ccccc34)C(c3ccc(O)cc3)N2C1=S (stereo partly drawn),i,-123,2,.,-13,11,?,.,PABP FP inh retest=22
Cc1ccc(Cl)cc1NC(=O)CNCC(c1ccccc1)N(C)C (stereo not drawn),i,-6,-4,20,-17,-7,3,-14,
C/C(=N\NC(=O)c1ccccc1)c1ccc(N2CCOCC2)cc1,i,6,4,.,-18,-9,-11,-6,
Cc1cc(C(F)(F)F)c(C#N)c(SCC(=O)Nc2nc3cc(Br)ccc3s2)n1,i,-84,-5,-16,.,-16,2,47,
Cc1cccc(NC(=O)NNC(=O)c2sccc2-n2cccc2)c1,i,-2,0,2,.,26,-1,-1,
O=C(Nc1ccc(F)cc1)c1nc2c(nnn2Cc2cccc3ccccc23)c(=O)[nH]1,i,8,-9,8,-14,-15,4,17,
CCN1CCN(C(=O)Nc2cccc(C(F)(F)F)c2)CC1,i,1,-4,-13,-13,5,1,-10,
COc1ccc(C(NC(=O)C(C)(C)C)NC(=O)C(C)(C)C)cc1,i,-2,-1,-93,-1,25,0,2,
Nc1nc(SCC(=O)Nc2ccc3c(c2)OCO3)n[nH]1,i,2,4,-15,.,-10,-7,17,
O=C(CN1CCCCCC1=O)N1CCN(S(=O)(=O)c2cccs2)CC1,.,-4,2,19,.,-3,-14,-14,
COc1ccc(OC)c(NC(=O)c2cccnc2Sc2ccccc2)c1,i,-1,1,.,.,2,-11,8,
CCn1c(CCC(=O)N(C)CC(=O)Nc2cccc(F)c2)nc2cc(S(=O)(=O)N(C)C)ccc21,i,2,-2,0,.,.,.,1,
Cc1nc(C)c(-c2nnc(-c3cccc(S(=O)(=O)N(C)C)c3)o2)cc1C(=O)NN,i,-2,3,6,-12,-14,-1,-4,

# (list continues)
SMILES,Rce1 inh,MT1-MMP act inh,MT1-MMP act inh RFP,HIV Env fusion,UUG fidelity,PABP FP inh,eIF4H inh,CSC inhib,others
CC(=O)Nc1ccc(NC2CCCCC2NS(=O)(=O)c2ccc(Cl)cc2)cc1 (stereo not drawn),i,1,0,-12,.,-6,-13,13,
O=C(N/N=C/c1oc(O)c2ccccc12)c1ccccc1,i,5,6,-60,-8,6,-7,-13,
O=C(c1nc2n(n1)C(c1ccc(Cl)cc1)C=C(c1ccccc1)N2)N1CCOCC1 (stereo not drawn),i,-46,-5,-138,1,65*,66*,10,
CCCCC(c1nnnn1CS(=O)(=O)c1ccc(C)cc1)N1CCN(c2ccccc2)CC1 (stereo not drawn),i,-18,-16,13,-13,14,-2,-15,
O=C(CSc1nnc(-c2ccco2)o1)c1ccc[nH]1,i,0,5,-22,-15,10,83*,-7,eIF4H inh retest=91*;PABP FP inh retest=47
O=C(O)CSCc1nc2scc(-c3ccccc3)c2c(=O)[nH]1,i,1,2,-11,.,?,0,2,
C#CCN(C[C@@H]1[C@@H](OC(=O)NCc2ccccc2F)[C@@H](OC(=O)NCc2ccccc2F)Cn2c(=O)n(CCCCCC)c(=O)n21)S(=O)(=O)c1ccc(C)cc1,.,4,2,-1,-15,.,.,.,
COc1ccc(-c2ccc(OC)c([C@H]3[C@H]4C=CC[C@@H](C)[C@@H]4C(=O)N3Cc3ccccc3)c2)cc1C,i,-14,-22,-11,-16,-2,-4,50,
COC(=O)[C@]1(Cc2ccccc2)N[C@H](CN(C)C(=O)COc2ccccc2)[C@@H]2C(=O)N(C)C(=O)[C@@H]21,.,2,6,9,-6,.,.,.,
Cc1cc(-c2onc(C)c2C(N)=O)no1,i,-4,0,6,.,1,-4,8,
COc1ccc(C(=O)N2CCN(c3cccc(Cl)c3)CC2)cc1,i,2,0,.,-15,-17,-4,-5,
COc1ccc(CN(C)C(C)C(=O)N(C)CC(=O)Nc2ccc(C)cc2)cc1F (stereo not drawn),.,-3,-3,.,-6,.,.,-5,
CC(/C=C1\SC(=S)N(C(C(=O)O)c2ccccc2)C1=O)=C\c1ccccc1 (stereo not drawn),i,-4,6,-48,.,33,28,22,
CC(C)(C)N=C1NN=C(c2ccc(Cl)cc2)CS1,i,5,1,-87,.,6,0,5,
CSc1cccc(NC(=O)c2ccccn2)c1,i,.,.,.,.,4,-6,-2,
CN(C(=O)c1ccc(NC(=O)Cc2cccc([N+](=O)[O-])c2)cc1)C1CC1,.,5,2,13,11,.,.,-11,
CCNC(=O)C1(C)CCN(C(=O)c2ccc(F)cc2Cl)C1 (stereo not drawn),.,2,7,-7,-14,.,.,.,
CN(Cc1ccccc1)C(=O)CN1C(=O)C2C3C=CC(C3)C2C1=O (stereo not drawn),i,5,4,.,.,40,1,-10,
CCOc1ccc(C(=O)N[C@H](C(=O)N2CCN(c3ncccn3)CC2)C(C)C)cc1,.,-1,0,5,-3,.,.,.,
Cc1cnc(NC(=O)C2CC(=O)N(c3ccc4c(c3)OCCO4)C2)s1 (stereo not drawn),.,-12,-6,3,.,.,.,-10,
Cc1cccc(-c2oc3ccc(-c4ccc5c(c4)OCO5)cc3c2C(=O)OCc2ccc(O)cc2)c1,i,.,.,17,-7,-14,-1,54,
CCC1CCCCN1CCCNC(=O)Cn1nc(-c2ccc(C)cc2)ccc1=O (stereo not drawn),i,2,2,.,-1,-2,-7,-8,
CCNC(=S)N1CCN(S(=O)(=O)c2ccccc2C(F)(F)F)CC1,i,0,0,-21,.,14,-10,-13,
CCN(CC)CCN1C(=O)C(=O)/C(=C(/O)c2c(C)[nH]c(C(=O)OC)c2C)C1c1ccc(C)o1 (stereo not drawn),i,0,8,-2,.,2,6,-12,
CCc1cc2cc(OC)ccc2nc1SCC(=O)NNC(=O)c1ccco1,.,-2,-1,-36,.,3,-6,-2,

# Next results:
SMILES,Rce1 inh,MT1-MMP act inh,MT1-MMP act inh RFP,HIV Env fusion,UUG fidelity,PABP FP inh,eIF4H inh,CSC inhib,others
Cc1ccc(S(=O)(=O)N[C@H](C(=O)Oc2ccc3c(C(F)(F)F)cc(=O)oc3c2)c2ccccc2)cc1,i,-45,-7,.,-17,22,17,-2,
O=C1CC(c2ccccc2)n2nc(NC(=O)c3ccccc3)nc2N1 (stereo not drawn),i,-1,3,-38,-9,5,3,-4,
CCNC(=O)c1sc(-c2ccccc2)nc1C,i,8,-3,-149,-3,-5,-4,4,
Cc1ccc(C(=O)Nc2cc3c(cc2N2CCCCC2)n(C)c(=O)n3C)cc1,i,4,1,.,-20,-3,-11,-12,
O=C(NC(=S)NN1CCCCC1c1cccnc1)c1ccc(Cl)cc1Cl (stereo not drawn),i,1,-1,8,-24,5,-6,-5,
CC(C)(C)N1C(=O)c2ccc(C(=O)Nc3ccc(-c4nc5ccccc5[nH]4)cc3)cc2C1=O,i,4,2,6,.,24,-6,.,
CCOC(=O)c1c(NC(=O)C2=COCCO2)sc2c1CCN(C(=O)OC)C2,i,-2,-3,-25,-4,.,.,-4,
CCCCn1c(SCC(=O)c2ccc(OC)cc2OC)nc2cc(S(N)(=O)=O)ccc21,.,0,0,.,.,2,32,8,
CCOc1ccc(C(=O)NC(=S)NC2CCCC2)cc1[N+](=O)[O-],i,4,1,-19,-3,-2,4,3,
O=C(Cn1ncc2c(=O)oc3ccccc3c21)NCCc1ccsc1,i,4,5,-29,-6,-2,-10,.,
CCOC(=O)C1CCCN(c2nc3ccccc3nc2C(C#N)C(=O)NCc2ccccc2)C1 (stereo not drawn),i,-33,-15,.,5,7,7,5,
Cc1c(C(=O)N/N=C/c2ccc(O)c(Br)c2)sc(N)c1C#N,.,-53,-6,3,.,-10,43,3,
Cc1ccc(C(=O)NCc2ccccn2)cc1NC1=NC2CS(=O)(=O)CC2S1 (stereo not drawn),i,0,4,10,-15,-5,-11,-7,
O=C(/C=C/c1ccco1)NC(=S)Nc1ccccc1N1CCCC1,i,-5,6,5,.,55,102,52,eIF4H inh retest=38;PABP FP inh retest=19
O=C(CN1CCN(c2ccc(F)cc2)CC1)N1CCC(Cc2ccccc2)CC1,i,6,-4,15,-11,8,5,35,
O=C(Oc1ccc2c(c1)C(=O)c1ccccc1CO2)c1ccccc1,i,0,3,-222,-18,0,-5,-8,
Cc1ccc(NC2c3ccccc3C(=O)N2CCN2CCOCC2)cc1 (stereo not drawn),i,0,1,7,-7,2,-4,-10,
Cc1noc(C)c1S(=O)(=O)N(CC(=O)N1CCCC1)c1ccc(C(C)C)cc1,i,-7,0,-8,-16,2,5,-5,
Cc1cc(NC(=O)COC(=O)COc2ccc(C(=O)c3ccccc3)cc2)no1,i,4,6,.,184*,-6,-7,-7,
CCOc1ccc(S(=O)(=O)Nc2ccccc2C(=O)NCC2CCCO2)cc1 (stereo not drawn),i,4,0,10,-11,-6,4,5,
CCOC(=O)c1ccc(Oc2cn[nH]c2-c2ccc(O)cc2O)cc1,i,6,-26,12,-10,6,-5,14,
CCn1cc(Cl)c(C(=O)Nc2cccc(C(F)(F)F)c2)n1,i,-1,-1,-15,.,1,23,-3,
COc1ccc2sc(N(CCN(C)C)C(=O)c3cc(Cl)sc3Cl)nc2c1,i,0,-3,8,.,-1,2,-13,

# Reprinted at random: 3 entries already listed
SMILES,Rce1 inh,MT1-MMP act inh,MT1-MMP act inh RFP,HIV Env fusion,UUG fidelity,PABP FP inh,eIF4H inh,CSC inhib,others
Cc1ccc(S(=O)(=O)N[C@H](C(=O)Oc2ccc3c(C(F)(F)F)cc(=O)oc3c2)c2ccccc2)cc1,i,-45,-7,.,-17,22,17,-2,
O=C(Cn1ncc2c(=O)oc3ccccc3c21)NCCc1ccsc1,i,4,5,-29,-6,-2,-10,.,
CCNC(=O)c1sc(-c2ccccc2)nc1C,i,8,-3,-149,-3,-5,-4,4,

# Compound activity (PubChem BioAssay)

# An excerpt, so the mix of outcomes need not match the whole.
